Screening data (PubChem BioAssay)
VDR inhibitor = blocks the human vitamin D receptor. P11473. VDR-SRC2-3 peptide fluorescence polarization, 2 h. Potency, µM, without a hit: max response, negative = inhibition, most hits filed as inhibitors. 400,000 tested, 0.93% active. AID 504847; active means well fitted inhibition curve with a large enough effect; inconclusive means small, poorly fitted or top-dose-only effect, or another doubt; inactive means no such curve, though single readings can be large or run the other way; further: series mostly up to about 120 µM
Target sequence (P11473 whole entry, looked up): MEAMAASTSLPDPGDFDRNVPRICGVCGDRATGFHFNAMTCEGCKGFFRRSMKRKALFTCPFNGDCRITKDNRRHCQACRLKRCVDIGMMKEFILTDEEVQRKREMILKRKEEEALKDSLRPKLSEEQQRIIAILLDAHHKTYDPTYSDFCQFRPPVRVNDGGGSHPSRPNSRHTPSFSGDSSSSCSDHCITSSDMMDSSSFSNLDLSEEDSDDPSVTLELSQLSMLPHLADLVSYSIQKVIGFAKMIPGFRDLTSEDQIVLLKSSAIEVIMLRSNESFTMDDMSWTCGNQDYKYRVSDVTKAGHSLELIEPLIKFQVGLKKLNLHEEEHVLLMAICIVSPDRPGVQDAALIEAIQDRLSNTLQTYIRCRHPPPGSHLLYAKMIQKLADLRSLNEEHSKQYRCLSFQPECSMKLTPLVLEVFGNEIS
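Inhibition of the VDR/SRC2-3 peptide interaction is quantified by fluorescence polarization. Compounds (23 nl, pintool) incubate with the reagents for 2 hours at ambient room temperature.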
* marks the source's active call; other numbers are inactive results; ? = inconclusive; & = joins results of further samples. On the % scale 0 is the no-effect control and ±100 the full control effect; potency means the concentration at half of the fitted maximal effect. This is a subset (hit frequency here may not be typical).

SMILES	VDR inhibitor
COc1ccc2[nH]c(=O)c(CN(c3ccccc3)S(=O)(=O)c3ccccc3)cc2c1	4%
Fc1ccc(Nc2nc(-c3ccoc3)nc3ccccc23)cc1	16µM*
Cn1cc(CN2CCN(Cc3cccnc3)CC2)c(-c2ccc3c(c2)OCCO3)n1	-13%
CCC(=O)N1CCc2cc(S(=O)(=O)NCCC(=O)Nc3ccc(CC)cc3)ccc21	-6%
Cc1cccc(OCc2nc(C#N)c(N3CCCC3)o2)c1	1%
N#C/C(=C\c1cccc([N+](=O)[O-])c1)C(=O)Nc1cccnc1	-21%
CCOc1cc(CNc2ccc(N3CCCC3)cc2)cc(Cl)c1OC	?
CC(=O)c1cc2c(cc1NC(=O)CN1CCN(c3ccc(F)cc3)CC1)OCO2	20%
COc1ccc(-c2[nH]ncc2CN2C[C@@H]3CCC[C@H]2C3)c(F)c1	-3%
CC(=O)NCCC(Cc1ccccc1)c1ccco1 (configuration not stated)	-5%
Cc1ccc(Cl)cc1N1CCN(C(=O)C2CCN(S(=O)(=O)c3cccc4nonc34)CC2)CC1	1%
CCC(C)c1cc([N+](=O)[O-])cc([N+](=O)[O-])c1OC(C)=O (configuration not stated)	-6%
COc1ccc(-c2nsc3c(N4CCCCC4C)ncnc23)cc1 (configuration not stated)	-15%
CCC(C)NC(=O)CSc1ccc(S(=O)(=O)N2CCN(Cc3ccccc3)CC2)cn1 (configuration not stated)	-10%
Cc1ccc(NC(=O)CCN2C(=O)NC3(CCCC3)C2=O)cc1S(=O)(=O)N1CCOCC1	-6%
Nc1nc(-c2ccco2)nn1S(=O)(=O)c1ccccc1	-8%
COc1ccc(CCNC(=O)c2ccccc2OCc2ccccc2)cc1	2%
COc1cccc(Cn2nnc(C(=O)NCc3ccc4c(c3)OCO4)c2N)c1	-4%
CC(=O)c1cccc(NC(=O)c2noc3c2CC(C)CC3)c1 (configuration not stated)	-1%
Cc1ccccc1Nc1nc(NCc2ccco2)c2ccccc2n1	12%
COc1ccc(CCNC(=O)C(Sc2ccccn2)c2ccccc2)cc1OC (configuration not stated)	-10%
O=C(N=C1SC2CS(=O)(=O)CC2N1c1cccc(Cl)c1Cl)C1CC1 (configuration not stated)	-3%
CCC(C)NC(=O)CSc1nc2n[nH]c(C)c2c(=N)n1-c1ccc(C)c(Cl)c1 (configuration not stated)	11%
CC(C)CC(C(=O)NCC1CCCO1)N(C(=O)Cn1nnc(-c2ccc(F)cc2)n1)c1ccccc1F (configuration not stated)	16%
O=c1[nH]c(=O)n([C@H]2C[C@H](O)[C@@H](CO)O2)cc1F	-16%&7%&8%&-3%
NC(=O)c1ccc(SCC(=O)OCC(=O)NC2CCCCCCC2)c([N+](=O)[O-])c1	-18%
O=C(CCC(=O)N/N=C/c1ccc(Br)s1)NCc1ccccc1	-20%
Cc1[nH]c2ccc(Br)cc2c(=O)c1CN1CCCCC1	5%
Cc1nnc2ccc(-c3ccc(NS(=O)(=O)c4ccc(Cl)s4)cc3)nn12	-12%
COc1cc(C(=O)NCc2ccc(-c3nc4ccccc4o3)cc2)cc(OC)c1OC	-4%
CN(C(=O)COC(=O)CSCc1cccc(Cl)c1)c1c(N)n(Cc2ccccc2)c(=O)[nH]c1=O	-15%
CCn1cc(C(=O)NCc2ccccc2Cl)c(=O)c2cc(S(=O)(=O)N3CCCCC3)ccc21	-1%
Cc1nc(CN(C)C(=O)c2cc(COc3ccc4ncccc4c3)on2)cs1	3%
O=C(N/N=C\c1ccc([N+](=O)[O-])o1)c1ccc(O)cc1	4%
CN(C1CCCCC1)C(CNS(=O)(=O)c1ccccc1)c1ccccc1 (configuration not stated)	16%
Cc1ccc(S(=O)(=O)NCCCNS(=O)(=O)c2ccccc2[N+](=O)[O-])cc1	-8%
COc1ccc2c(C(=O)c3ccc(Cl)cc3)n(CCCC(N)=O)[n+]([O-])c2c1	5%
O=C(NCCc1csc(-c2ccc(C(F)(F)F)cc2)n1)C(=O)Nc1cc(F)ccc1F	8%
CCOC(=O)c1c(C(C#N)C#N)cc(C)nc1C	2%
COc1ccc(/C=N/NC(=O)c2ccc(Br)o2)cc1Cn1cc([N+](=O)[O-])cn1	-9%
CCn1cc(Br)c(C(=O)N(C)Cc2ccccc2)n1	-6%
O=C(Nc1ccc(S(=O)(=O)N2CCCCC2)cc1)c1ccco1	-11%
COc1ccccc1CCC(=O)Nc1nccs1	-8%
CCCCSc1nc(C)cc(C)c1S(=O)(=O)c1ccccc1C	7%
COc1cccc(CNC(=O)C2CCN(c3nn4c(=O)cc(C)nc4s3)CC2)c1	-6%&-17%
CC1CCCC(NC(=O)COC(=O)/C=C/c2ccco2)C1C (configuration not stated)	-13%
O=C(NCCN1CCOCC1)C(=O)NCC1OCCN1C(=O)c1ccc(Cl)cc1 (configuration not stated)	15%
CC(=O)CCc1oc2ccc(C)cc2c1-c1ccccc1	1%
CCOCCCNC(=O)c1ccc(Br)cc1	11%
CC(C)Cc1ccc(S(=O)(=O)NCc2nc3cccnc3n2Cc2ccccc2)cc1	-5%
Oc1ccc(C[C@@H]2CNC(=S)N2CCCCC2CCCCC2)cc1	9%
Cc1cc(C)cc(Nc2ncnc3nc[nH]c23)c1	-7%
CCOc1ccc(C(=O)Nc2cc(C)on2)cc1OCC	-1%
O=C(NCCN1CCN(c2ccccc2Cl)CC1)Nc1ccccc1	-23%
CC(C)OCCCNC(=O)c1cccs1	9%
COc1ccc(S(=O)(=O)N2CCOCC2)cc1NC(=O)COC(=O)CCOc1ccc(C)cc1	-14%
COc1cc(C(=O)Nc2ccc(S(=O)(=O)N3CCc4ccccc43)cc2)cc(OC)c1OC	8%
CCOC(=O)C1=C(CN2CCN(c3ccc(OC)cc3)CC2)NC(=O)NC1c1ccc(OC)cc1 (configuration not stated)	4%
CC(Oc1ccccc1F)C(=O)NNC(=O)Cc1ccc(S(=O)(=O)N2CCOCC2)s1 (configuration not stated)	-5%
Cc1nc2c(c(=O)c3ccccc3n2C)c(=O)n1C1CCCCCC1	3%

Ordered by SMILES length (largest number first): some entries from above
SMILES	VDR inhibitor
CCOC(=O)C1=C(CN2CCN(c3ccc(OC)cc3)CC2)NC(=O)NC1c1ccc(OC)cc1 (configuration not stated)	4%
COc1cc(C(=O)Nc2ccc(S(=O)(=O)N3CCc4ccccc43)cc2)cc(OC)c1OC	8%
CC(Oc1ccccc1F)C(=O)NNC(=O)Cc1ccc(S(=O)(=O)N2CCOCC2)s1 (configuration not stated)	-5%
CC(C)Cc1ccc(S(=O)(=O)NCc2nc3cccnc3n2Cc2ccccc2)cc1	-5%
O=C(NCCN1CCOCC1)C(=O)NCC1OCCN1C(=O)c1ccc(Cl)cc1 (configuration not stated)	15%
Cc1nc2c(c(=O)c3ccccc3n2C)c(=O)n1C1CCCCCC1	3%
Oc1ccc(C[C@@H]2CNC(=S)N2CCCCC2CCCCC2)cc1	9%
CCCCSc1nc(C)cc(C)c1S(=O)(=O)c1ccccc1C	7%
CC(=O)CCc1oc2ccc(C)cc2c1-c1ccccc1	1%
CCOc1ccc(C(=O)Nc2cc(C)on2)cc1OCC	-1%
Cc1cc(C)cc(Nc2ncnc3nc[nH]c23)c1	-7%
COc1ccccc1CCC(=O)Nc1nccs1	-8%
CCOCCCNC(=O)c1ccc(Br)cc1	11%
CC(C)OCCCNC(=O)c1cccs1	9%

(more compounds)
SMILES	VDR inhibitor
CCOC(=O)C1CCCN(C(=O)c2ccc(C)cc2O)C1 (configuration not stated)	-4%
COC(=O)CCC(=O)OC1(C)C(=O)C=C2C=C(C3CC3)N(C3CCCC3)C=C2C1=O (configuration not stated)	-11%
O=C(OCN1C(=O)c2ccccc2C1=O)c1cccs1	-11%
N#Cc1c(C(F)(F)F)cc(C2CC2)[nH]c1=O	-12%
Cc1ccc(C)c(NC(=O)Cn2cc(C(=O)c3cccs3)c3ccccc32)c1	9%
COC(=O)[C@H](CCSC)NC(=O)NCc1ccccn1	-5%
CCOC(=O)c1ccc(NC(=O)CSc2nc(=O)n3cccc(C)c3n2)cc1	-11%
COc1ccc(Br)c(C(=O)Nc2nc3ccccc3[nH]2)c1	-5%
CN(C)N1C(=O)C2C3C=CC(O3)C2C1=O (configuration not stated)	15%
COC(=O)CCCC(=O)NC1CCCN(C2Cc3ccccc3C2)C1 (configuration not stated)	-7%
O=C(O)c1ccccc1NCc1ccncc1	5%
COc1cccc(CNC(=O)CCCn2nc(C)c3c(C)n(-c4ccc(C)cc4)nc3c2=O)c1OC	-13%&-9%
CCOC(=O)N1CCN(C(=O)CCc2ccc(S(=O)(=O)NC(C)C)cc2)CC1	3%
Cc1ccc(NC(=O)/C(=C/c2cccc(Br)c2)NC(=O)c2ccco2)cc1	-1%
Cn1cccc1C1(C(F)(F)F)NCCNC1=O (configuration not stated)	4%
CC(=O)c1cccc(NC(=O)N2CCCC2C(=O)NCc2ccc(F)cc2)c1 (configuration not stated)	14%
CCOc1cc(-c2nnc(SCC(=O)NCCCOC)nc2-c2ccc(OC)c(OCC)c2)ccc1OC	4%
Cc1ccccc1S(=O)(=O)/N=C(/Nc1nc2ccccc2s1)c1ccccc1	-7%
Cc1ccc2oc(-c3cccc(NC(=O)/C=C/c4cccc([N+](=O)[O-])c4)c3C)nc2c1	-21%
CC(C)N1CCC(=NNc2ccc([N+](=O)[O-])cc2S(=O)(=O)N2CCOCC2)CC1	-8%
COCC(=O)NC1CCN(C(=O)Nc2ccc(Br)cc2)CC1	-8%
CCCC(NC(=O)COc1cc2c(c3oc(=O)cc(C)c13)CCC(C)(C)O2)C(=O)O (configuration not stated)	-7%
Cn1ccc(=Nc2ccc(NC(=O)c3ccc(N=c4ccn(C)c5ccc([N+](=O)[O-])cc45)cc3)cc2)cc1	-1%
CC(Sc1ncnc2ccccc12)C(=O)Nc1ccc2c(c1)OCO2 (configuration not stated)	?

Among those listed so far, 2 contain a COOH group:
SMILES	VDR inhibitor
O=C(O)c1ccccc1NCc1ccncc1	5%
CCCC(NC(=O)COc1cc2c(c3oc(=O)cc(C)c13)CCC(C)(C)O2)C(=O)O (configuration not stated)	-7%

Next entries
SMILES	VDR inhibitor
O=[N+]([O-])c1cc(F)cc(F)c1Nc1cc(F)cc(F)c1	6%
CCN(CCN(C)C)C(=O)c1ccc2c(c1NCCO)C(=O)c1ccccc1C2=O	-7%
O=C(Nc1ccc(F)c(Cl)c1)c1cc(S(=O)(=O)N2CCc3ccccc3C2)ccc1F	24%
CC(C)n1ncc(C(N)=O)c1N	-3%
CC(=O)N1CCN(C(=O)c2cc3ccccc3o2)CC1	-22%
Cc1ccc(NC(=O)CCS(=O)(=O)c2ccc3c(c2)oc(=O)n3C)c(Br)c1	5%
N#Cc1cccc(NC(=O)CCn2ccnc2)c1	0%
COc1ccccc1NC(=S)N(CCCN1CCOCC1)Cc1ccccn1	-6%
CC1CCN(c2nc(-c3ccco3)c3c(c2C#N)CC(C)(C)OC3)CC1	50µM*
COCCn1c(C)cc(/C=C2/SC(=O)N(CC(=O)N3CCCC3)C2=O)c1C	-3%
O=[N+]([O-])c1ccc(N2CCCCC2)cn1	9%
Cc1cnn(CCC(=O)NNC(=S)Nc2ccc(F)cc2)c1	-5%
COc1cc(C(=O)Nc2cc(OC)c(OC)c(OC)c2)ccc1OCc1c(C)noc1C	-14%
CSCCC(NC(=O)c1ccc(Cl)cc1Cl)C(=O)OC1CCCCC1=O (configuration not stated)	-3%
NC(=O)C1CCN(C(=O)COc2ccc3ccc(=O)oc3c2)CC1	-15%
CC(=O)c1ccc(NC(=O)COC(=O)CCC2CCCC2)cc1	-3%
CCOC(=O)N1CCC(n2c(SCC(=O)OCc3ccccc3)nc3ccsc3c2=O)CC1	-6%
S=C(NCc1cccc(Cl)c1)NCc1ccco1	?
O=C(O)c1ccc(NC(=O)C2CCCCC2)cc1	-2%
CCOC(=O)N1CCN(C(c2ccc(C(C)C)cc2)c2sc3nc(C)nn3c2O)CC1 (configuration not stated)	7%
CCOc1ccccc1-n1c(SCC(N)=O)nnc1-c1cccnc1	3%
CSc1ccc(NC(=O)NCCCN2CCC(Cc3ccccc3)CC2)cc1	-1%
Cc1nc2ccc(S(=O)(=O)NCC(=O)NCCN3CCCCC3C)cc2s1 (configuration not stated)	-1%
CCN(CC)c1nc(-c2ccccc2Cl)c2cc(Br)ccc2n1	-6%
O=C(C1CC(c2ccc(F)cc2)=NO1)N1CCc2ccccc2C1 (configuration not stated)	2%
CCCNc1nc(Cl)nc(NCc2cccnc2)n1	-11%
CCc1ccc(-n2c(=O)c3sc4ccccc4c3n(CC(=O)N3CCCC3)c2=O)cc1	-1%
CCOC(=O)c1ccc(NC(=O)CSc2nc3c(c(=O)[nH]2)CN(Cc2ccccc2)CC3)cc1	6%
COc1cc(S(=O)(=O)NCCCN2CCOCC2)ccc1-n1cnnn1	7%
CC(=O)c1sc2nsc(SCCN3CCOCC3)c2c1N	-17%
O=C1CCCN2N=C(SCC(=O)Nc3nccs3)SC2=N1	-7%
Cc1cc(C)cc(NC(=O)C(OC(=O)c2cccs2)c2ccccc2)c1 (configuration not stated)	-5%
CCC(=O)c1ccc(OCC(O)CN2C(=O)NC(C)(C)C2=O)cc1 (configuration not stated)	5%
CC(=O)c1ccc(N2CCN(C(=S)Nc3ccccc3F)CC2)cc1	-5%
C[C@@H]1CN(C(=O)c2nc3ccc(Cl)cn3c2CN2CCc3sccc3C2)C[C@H](C)O1	6%
CN(C(=O)c1cccc(NC(=O)Cc2cccc(NC(=O)C3CCCN(C(=O)C4CC4)C3)c2)c1)C1CCC1 (configuration not stated)	-4%
